# Bioassay records (PubChem)
# LANA-H2B inh = blocks KSHV LANA binding to histone H2A/H2B; inhibition, % (test concentration not listed); cell-free LANA-H2A/H2B peptide, fluorescence polarization; Q9QR71; 320,000 compounds, 0.6% hits; AID 2629; in the data active = inhibition mostly above about 10%, no sharp cut-off; inactive = mostly below about 6.7%;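 note: stock transfer was 7.5 nL into about 10 µL; 0% = median of vehicle wells and 100% = median of positive control wells; one replicate is shown; the record names a cut of 25% in any replicate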
# UCH37 inh = human UCH37 deubiquitinating enzyme inhibition | inhibition, % (test concentration not listed) | purified proteasome/UCH37, Ub-AMC cleavage fluorescence | 330,000 compounds, 0.33% hits | Q9Y5K5 | AID 588478;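 active = mean of two replicates above 20%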;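 note: 0% = compound-free wells with enzyme and 100% = wells lacking proteasome; stock transfer was 100 nL into about 20 µL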
#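 Test system – human UCH37 enzyme supplied as purified proteasome complex · Incubation – 30 min preincubation with enzyme, 25 min cleavage at room temperature · Detection – AMC fluorescence from Ub-AMC cleavage, excitation 355 nm, emission 460 nm · Benchmarks – no-proteasome wells (full inhibition) and compound-free wells (no inhibition)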
# E coli growth = blocks Escherichia coli growth. OD600, 23 h; stronger effect = lower value. OD600 absorbance (concentration not given with the values). 330,000 compounds, 0.21% hits. AID 1053175;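 active = OD600 absorbance below the run mean of sample wells minus 3.6 SD, in any replicate, cut at about 0.56 in these data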;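 note: stock transfer was 300 nL into about 60 µL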
# ALR inh = inhibitors of human sulfhydryl oxidase ALR; AID 485317; 290,000 compounds, 3.8% hits; P55789; inhibition, % (test concentration not listed); purified ALR, DTT oxidation, H2O2 HRP-luminol luminescence;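 active = mean and each replicate at 75% or more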;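 note: stock transfer was 7.5 nL into about 7.5 µL; 0% = neutral wells and 100% = wells with inactivated enzyme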
# HNF4A DNA FP = change in binding of human HNF4 alpha to DNA | P41235 | HNF4a-FITC DNA binding, fluorescence polarization, 1 h | activity change, % at 10 µM | 360,000 compounds, 0.3% hits | AID 1224865; in the data active = activity change above about 30%, passing the limit was not always enough;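 note: controls were the assay level and a saturating level of protein; the project sought stronger binding though the title names inhibitors; some compounds called inactive have numbers as strong as hits; positive values seem to mean higher polarization but the record does not say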
# Target sequence (P41235 whole entry, looked up): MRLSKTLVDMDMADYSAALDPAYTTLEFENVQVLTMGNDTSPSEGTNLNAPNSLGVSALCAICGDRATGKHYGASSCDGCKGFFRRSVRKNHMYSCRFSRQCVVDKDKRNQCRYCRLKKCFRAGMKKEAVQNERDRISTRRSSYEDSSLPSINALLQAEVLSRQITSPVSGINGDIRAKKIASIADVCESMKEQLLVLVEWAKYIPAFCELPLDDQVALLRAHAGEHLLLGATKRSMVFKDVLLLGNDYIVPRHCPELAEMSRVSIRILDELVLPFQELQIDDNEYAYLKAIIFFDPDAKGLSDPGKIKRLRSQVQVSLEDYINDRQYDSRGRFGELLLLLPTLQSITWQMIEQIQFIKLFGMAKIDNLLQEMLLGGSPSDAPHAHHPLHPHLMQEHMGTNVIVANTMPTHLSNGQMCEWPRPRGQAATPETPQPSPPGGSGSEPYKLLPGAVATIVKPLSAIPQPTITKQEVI
# FGF22 binding = binders of recombinant human FGF22 by thermal shift. AID 651658. Q9HCT0. calls only at 9.99 µM. SYPRO orange fluorescence; percent of sucrose octasulfate shift, DMSO zero. 340,000 compounds, 1.5% hits;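 active = melting point raised past a set limit in the mean and every replicate; three in four hits are not shown here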
# Target sequence (Q9HCT0 whole entry, looked up): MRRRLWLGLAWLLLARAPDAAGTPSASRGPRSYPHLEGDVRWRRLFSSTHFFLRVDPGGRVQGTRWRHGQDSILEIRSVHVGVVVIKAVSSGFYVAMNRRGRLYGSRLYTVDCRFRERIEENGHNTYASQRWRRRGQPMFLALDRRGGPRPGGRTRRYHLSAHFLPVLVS
# Beta2AR agonist = activates human beta-2 adrenergic receptor causing internalization; response, % (concentration not given with the values); Am2.2-beta2AR cells, FAP receptor internalization, flow cytometry; reference of the scale not given here; 340,000 compounds, 0.43% hits; AID 504454; P07550;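 active = response above a set limit, near 3 SD of response in nonfluorescent compounds, cut at about 42% in these data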;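 note: stock transfer was 100 nL into about 11 µL; a reference agonist was the positive control; negative values mostly stem from fluorescent compounds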
# Target sequence (P07550 whole entry, looked up): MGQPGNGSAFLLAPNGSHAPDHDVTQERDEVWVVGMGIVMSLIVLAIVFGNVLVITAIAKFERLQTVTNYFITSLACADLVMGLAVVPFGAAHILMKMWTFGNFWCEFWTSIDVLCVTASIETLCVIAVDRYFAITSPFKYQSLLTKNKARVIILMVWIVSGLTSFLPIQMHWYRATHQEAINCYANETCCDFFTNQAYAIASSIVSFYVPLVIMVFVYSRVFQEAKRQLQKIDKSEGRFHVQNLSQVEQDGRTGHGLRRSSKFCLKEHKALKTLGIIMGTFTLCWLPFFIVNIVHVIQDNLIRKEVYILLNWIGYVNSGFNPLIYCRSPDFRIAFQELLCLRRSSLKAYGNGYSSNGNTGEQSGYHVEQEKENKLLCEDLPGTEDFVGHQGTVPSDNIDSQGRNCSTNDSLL
# Numbers without * were called inactive; i = inactive; · = not tested or not shown.
SMILES,LANA-H2B inh,UCH37 inh,E coli growth,ALR inh,HNF4A DNA FP,FGF22 binding,Beta2AR agonist
O=C1CCCN1CC(O)CS(=O)(=O)c1ccccc1 (centres undefined),2.9,4.0,0.73,-3.3,-0.4,·,3.3
Cc1ccc(C)c(N2CCN(S(=O)(=O)c3ccc4c(c3)CC(=O)N4C)CC2)c1,-6.8,1.1,0.713,3.7,2.2,i,-8.4
COCc1ccccc1C1=CC(=O)C[C@H](c2ccc(F)cc2)C1,10.8,0.6,·,-2.5,1.6,·,-3.7
CC(C)c1ccc(NC(=S)NC2CC3C=CC2C3)cc1 (centres undefined),2.5,2.0,0.628,20.5,1.4,i,-4.4
COC(=O)c1sc(=S)n(-c2cccc(Cl)c2)c1N,3.7,7.0,0.663,6.9,0.6,i,-0.7
CCOC(=O)c1c(-c2cccc([N+](=O)[O-])c2)csc1N,-4.0,2.8,0.641,·,2.9,i,3.1
O=C(CSc1nnc(-c2ccco2)n1CC1CCCO1)N1CCCCC1 (centres undefined),-6.7,1.3,0.654,-1.8,-1.6,·,-4.0
CSc1ccc(/C=C/C(=O)c2c(O)cc(C)oc2=O)cc1,-14.5,3.7,0.677,97.6*,2.7,·,8.1
O=C(CCNc1n[nH]c(=O)[nH]c1=O)N/N=C\c1cccc(OCc2ccccc2)c1,1.4,·,·,-4.4,-2.6,·,3.4
CCCCCc1cc(=O)oc2c(C(CCN3CCCCC3)c3ccc(OC)cc3)c(OC)cc(OC)c12 (centres undefined),0.6,·,·,·,2.1,i,17.0

# The closing two entries of the part before are carried over, then new ones follow.
SMILES,LANA-H2B inh,UCH37 inh,E coli growth,ALR inh,HNF4A DNA FP,FGF22 binding,Beta2AR agonist
O=C(CCNc1n[nH]c(=O)[nH]c1=O)N/N=C\c1cccc(OCc2ccccc2)c1,1.4,·,·,-4.4,-2.6,·,3.4
CCCCCc1cc(=O)oc2c(C(CCN3CCCCC3)c3ccc(OC)cc3)c(OC)cc(OC)c12 (centres undefined),0.6,·,·,·,2.1,i,17.0
CCn1c(COc2ccc(=O)n(-c3ccccc3)n2)nnc1SC,-4.5,2.1,0.721,3.8,-0.7,i,4.7
O=C(c1nc2ccccn2c1CNCCCn1ncc2ccccc21)N1CCOCC1,-8.1,3.9,0.713,-17.8,3.7,i,·
CCCC(=O)Nc1c(-c2ccccc2)c(=O)c(C)nn1-c1ccc(Cl)cc1,5.7,·,·,0.4,3.7,i,-0.6
Nc1nnnn1/N=C/c1cccs1,3.5,·,·,·,4.0,i,2.7
O=C(Nc1ccon1)Nc1cccc(Cl)c1Cl,-0.5,3.9,0.711,-14.5,-0.3,i,4.4
Cc1cc(NC(=O)COC(=O)C2CCN(C(=O)c3ccc(Cl)cc3)CC2)no1,-2.2,3.9,0.77,-2.5,-0.1,·,-0.8
COc1ccc(N(CC(=O)N2CCN(C)CC2)S(=O)(=O)c2cc(C)ccc2OC)cc1Cl,6.6,-0.8,0.707,-1.4,2.3,i,-5.9
N#CC(c1ccc(Cl)cc1)(c1ncc(C(F)(F)F)cc1Cl)N1CCOCC1 (centres undefined),-3.4,-2.2,0.637,-7.8,1.7,·,6.5
COc1ccc(N2CCN(CC(=O)c3c[nH]c4ccccc34)CC2)cc1,-3.5,5.0,0.728,-1.8,9.2,i,4.3
CC(=O)c1cc(-c2ccccc2)n(CCC(=O)NC2CCC(C)CC2)c1C (centres undefined),-5.4,2.1,0.664,-2.1,-0.2,·,-5.4
COc1ccccc1NC(=O)C1CCCCN1S(=O)(=O)c1ccc(F)cc1 (centres undefined),-1.2,1.3,0.672,-1.9,4.1,·,-4.8
C/C(=N\NC(=O)c1cc(-c2cccc([N+](=O)[O-])c2)n[nH]1)c1ccccc1O,1.4,·,·,4.7,-15.4,·,-11.5
CN(C(=O)c1ccco1)c1ccccc1C(=O)O,0.4,1.4,0.711,-5.8,0.5,i,-4.4
COC(=O)c1sc(NC(=S)NC(=O)c2ccccc2)nc1C,-5.9,5.6,0.733,4.3,0.2,i,-7.9
CCN(CC)CCNC(=O)CCCCCn1c(=O)[nH]c2cc(C(=O)OC)ccc2c1=O,4.9,-43.5,0.702,·,2.6,·,16.0
c1ccc2c3c(c(CN4CCCC4)cc2c1)COC3,1.4,-2.5,0.65,4.9,-1.8,i,19.0
COc1ccc(OC(C)C(=O)N2CCOCC2)cc1 (centres undefined),2.2,2.6,0.717,-3.7,-0.3,·,2.3
COc1cccc2cc(C(=O)N3CCCCC3C)c(=O)oc12 (centres undefined),9.2,-0.3,0.658,-20.9,3.5,·,-1.9
Cc1cccc([C@@H]2[C@@H]3C(=O)N(Cc4ccccc4)C(=O)[C@@H]3[C@]3(Cc4ccc(Cl)cc4)C(=O)N(c4cccc(Br)c4)C(=O)N23)c1,2.4,2.6,·,·,-0.7,i,-1.0
COc1ccc(OC)c(C2CC(=O)N3CN(c4ccccc4)CSC3=C2C#N)c1 (centres undefined),3.9,3.6,0.738,-5.5,1.8,i,0.0
Cc1nc(NC(=O)CSc2nnc3ccccn23)c(Cl)cc1Cl,-2.2,-1.1,0.695,-3.8,0.7,·,-2.0
COc1ccc(N(CC(=O)NC2CCCC2)C(=O)Cn2nnc(-c3ccc(OC)c(OC)c3)n2)cc1,-2.4,1.2,0.691,14.4,0.0,i,11.5
COc1ccccc1NC(=O)CNC(=O)c1ccccc1,-2.0,1.0,0.781,-0.2,3.7,·,-1.1
NC(=S)n1[nH]c(-c2ccc([N+](=O)[O-])cc2)c(N=Nc2ccc(Cl)cc2)c1=O,·,2.9,0.647,·,-61.0,·,2.4
OCC(O)C1OC(Oc2ccccc2)C(O)C(O)C1O (centres undefined),·,2.1,0.669,·,1.3,i,-1.1
CC(=O)C(C)Oc1cc(C)cc2oc(=O)c(C)c(C)c12 (centres undefined),-1.1,-96.4,0.72,·,0.6,·,2.5
CCN(CC)c1ccc2cc(C(=O)NCc3ccc(F)cc3)c(=N)oc2c1,-11.2,·,·,-0.8,64.6,i,-318.2
O=C(CCCOc1ccc(Cl)cc1)N1CCCCC1,-1.2,3.8,0.642,4.8,-2.3,i,-4.8
CN(C)CC(=O)Nc1ccc(Oc2ccc(Cl)cc2)cc1,-0.1,3.4,0.639,-5.3,0.6,i,8.1
O=C(Cc1ccccc1)N/N=C/c1cc(Br)cc(Br)c1O,-1.2,·,·,-17.4,4.7,i,11.6
NC(=O)C1CCC(NC(=O)OCc2ccccc2)CC1 (centres undefined),-4.8,3.2,0.702,-9.6,0.0,·,-4.5
COC(=O)C(O)(CC(=O)Nc1ccc(OC)cc1)C(F)(F)F (centres undefined),-7.9,-0.9,0.673,·,-0.9,·,6.5
COc1ccc(NC(=O)CCS(=O)(=O)c2ccccc2Cl)cc1S(=O)(=O)Nc1ccc(Cl)cc1,2.6,4.5,0.688,1.0,-0.3,i,-3.2
CCCn1cc(S(=O)(=O)c2ccc(C)cc2)c(=O)c2cc(OC)ccc21,-2.1,-6.4,0.632,-5.0,0.2,i,7.7
Cc1c(NC(=O)/C(=C/c2cccs2)c2cccs2)c(=O)n(-c2ccccc2)n1C,-3.7,8.4,0.633,·,-2.5,·,-11.9
N#Cc1cc([N+](=O)[O-])ccc1N1CCN(c2ccccc2O)CC1,-3.0,3.9,0.698,98.1*,2.9,i,3.0
Cc1cccc(Oc2cc([N+](=O)[O-])cc3c2C(=O)Nc2ccccc2O3)c1,-3.0,6.3,0.721,-6.2,-3.1,i,-42.7
CCCOc1ccc(C(=O)Nc2cccnc2)cc1,-2.6,4.4,0.647,-5.0,2.2,i,-3.6
COc1ccc(NC(=O)CCCCCN2C(=O)[C@@H]3Cc4ccccc4CN3C2=O)cc1Cl,0.0,3.0,0.66,-2.6,-0.1,i,-10.3
c1ccc(NC2=Nc3cccc4cccc2c34)cc1,-1.2,4.2,0.584,-7.2,6.1,i,2.9
CCOc1ccc(N/C=C\C(=O)c2ccc3c(c2)OCO3)cc1,-1.3,-78.3,0.674,-5.7,1.7,i,4.3
O=C(CSc1nnc(-c2ccccc2F)n1C1CCCCC1)Nc1cc(C(=O)O)ccc1Cl,11.4,4.2,0.701,2.7,4.2,i,-5.9
O=[N+]([O-])c1ccc(Cl)cc1NCc1cccnc1,0.0,6.6,0.577,-13.5,1.2,i,-3.1
Cc1cc(C)c2oc(=O)cc(CN3CCN(Cc4ccccc4)CC3)c2c1,2.1,-0.7,0.684,12.1,10.1,i,13.5
CCC(CC)C(=O)NCCc1ccc(OC)c(OC)c1,3.6,0.6,0.665,-12.9,3.2,·,-2.7
CC(=O)c1ccc(NC(=O)C(C)OC(=O)C(C)Oc2cccc(C)c2)cc1 (centres undefined),-6.2,0.6,0.665,9.3,2.8,i,-2.0
c1ccc2sc(N3CCOCC3)nc2c1,1.1,-1.2,0.673,-1.7,1.1,·,2.7
Cc1c(NC(=O)C(=O)/C=C(\O)c2ccc(Br)cc2)c(=O)n(-c2ccccc2)n1C,-2.6,3.7,0.696,9.3,2.0,·,-6.9
COc1ccc2c3c([nH]c2c1)C(C)N(CCC(=O)NN)CC3 (centres undefined),-2.9,-20.1,0.705,59.4,-1.0,i,4.0
O=C(O)COc1ccc(S(=O)(=O)NCCc2ccccc2)cc1,-0.1,0.8,0.731,-2.0,2.0,i,0.1

# The list continues:
SMILES,LANA-H2B inh,UCH37 inh,E coli growth,ALR inh,HNF4A DNA FP,FGF22 binding,Beta2AR agonist
O=C(OCCCc1cc2ccccc2c(=O)o1)c1ccco1,-7.4,4.0,0.591,-1.3,-3.3,i,4.6
CC(=O)N1CCOc2ccc(S(=O)(=O)NCCc3ccc(Cl)cc3)cc21,-3.7,6.2,0.677,-3.7,1.8,i,4.6
COc1cc2c(cc1OC)CN(Cc1cc(=O)n3c(-c4ccccc4)csc3n1)CC2,0.2,-10.8,0.663,-14.7,6.4,i,4.7
CN(C)CCOCCOc1ccc(Cl)c2ccccc12,3.2,3.8,0.626,-13.1,1.5,i,22.6
C[N+]1(C)CC2([N+](=O)[O-])CC=C(Oc3ccccc3)C([N+](=O)[O-])(C2)C1 (centres undefined),3.3,2.5,0.625,-10.0,1.6,·,7.3
O=C(COc1ccccc1)NC1CCSC1=O (centres undefined),-2.2,2.4,0.709,0.4,3.2,i,-4.8
COc1ccc(NC(=S)Nc2ccc3nc(C)c(C)nc3c2)cc1,-1.5,7.9,0.673,-1.8,-1.3,·,-3.0
Cc1ccc(S(=O)(=O)N2CCC(C(=O)N3CCC(C(=O)NCC4CCCO4)CC3)CC2)cc1 (centres undefined),0.2,-1.3,0.683,-1.5,-2.6,i,-2.8
NS(=O)(=O)c1ccc(F)c(C(=O)O)c1,6.6,0.7,0.71,-0.5,0.8,i,2.5
COc1ccc([N+](=O)[O-])cc1NC(=O)C(C)Sc1ccc(C)cc1 (centres undefined),5.7,1.3,0.691,-1.6,-0.7,i,1.4
O=C(COC(=O)c1ccc(-c2ccccc2)cc1)Nc1ccccc1-c1ccccc1,3.5,4.7,0.681,·,1.5,·,1.2
Cc1ccc(S(=O)(=O)N2CCN(C(=O)Cn3nc(C)c([N+](=O)[O-])c3C)CC2)c(C)c1,-2.9,3.0,0.698,-0.6,0.4,i,0.5
O=C1CC(c2ccccc2)SC(N(c2ccccc2)c2ccccc2)=N1 (centres undefined),-7.9,3.7,0.72,-3.1,-0.2,i,15.3
O=C1/C(=C/c2cccs2)SC(=S)N1NS(=O)(=O)c1ccccc1,0.3,4.9,0.662,·,-9.3,i,-0.4
CC(C)C(=O)Nc1cccc(C(=O)Nc2ccc3c(c2)OCO3)c1,-0.1,3.7,0.656,-0.2,-0.8,·,-2.7
CCN(CC)S(=O)(=O)c1ccc(N2CCOCC2)c(NC(=S)NC(=O)c2ccco2)c1,3.6,3.5,0.625,9.6,-0.4,i,-11.2
COC(=O)c1ccc(/C=N/NC(=O)CC(=O)NCc2cccnc2)cc1,-3.1,·,·,-15.3,-2.2,·,-1.4
O=C(c1cccnc1)N1N=C2CCCCCC2C1(O)C(F)(F)F (centres undefined),9.4,0.3,0.701,0.7,-1.7,·,1.7
CC1CN(CCCCN2C(=O)c3ccccc3C2=O)CC(C)O1 (centres undefined),0.7,3.9,0.671,·,-1.0,i,2.5

# Not all compounds are listed (hit frequency here may not be typical).
